Source: PubChem BioAssay (National Center for Advancing Translational Sciences (NCATS))
CtBP-E1A blk – qHTS Assay for Inhibitors of the CtBP/E1A Interaction. CtBP / adenovirus E1A interaction (AlphaScreen). AlphaScreen GST-E1A/His-CtBP binding, 1536-well; hits give low values; control for the full effect not named in the record. activity change, % (concentration not given with the values). hit rate 0.49% among 340,000. AID 651724, 2012; in the data active means activity change below about -65%; inconclusive means about -30% to -65%; inactive means above about -30%; also: % is scaled to controls: 0 for no effect and ±100 for the full control effect
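GST-E1A and His-tagged CtBP (125 nM each as 5X stock) were preincubated with pin-transferred compound for 2 h at 37 °C in the dark, then glutathione donor and nickel acceptor beads were added for 1 h before AlphaScreen reading.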
gsp ag – qHTS for Agonist of gsp, the Etiologic Mutation Responsible for Fibrous Dysplasia/McCune-Albright Syndrome: qHTS. gsp mutant cells, cAMP HTRF, 30 min; control for the full effect not named in the record. Potency, µM (top dose mostly 76.9 µM), for the others: top-dose activation (cAMP increase), actives largely listed as activators. hit rate 0.13% among 340,000; active = well fitted activation curve with a large enough effect; inconclusive = small, poorly fitted or top-dose-only effect, or another doubt; inactive = no such curve, though single readings can be large or run the other way; cell line not stated here;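 also: phosphodiesterase inhibitor Ro 20-1724 added with compounds to block cAMP breakdown; potency is read from the fitted curve at half-maximal effect; nearly all actives have a fitted effect of over 60% in size; about a fifth of the inactives were tested at one dose only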
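Cells stably selected in G418 were plated at 2000/well, grown 16-24 hr, then given compounds in DMSO with the PDE inhibitor […] (300 uM solution added) for 30 min at 37C; cAMP was read by HTRF.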
gsp antag – qHTS for Antagonists of gsp, the Etiologic Mutation Responsible for Fibrous Dysplasia/McCune-Albright Syndrome: qHTS | gsp-mutant cells, cAMP HTRF, 30 min; control for the full effect not named in the record | Potency, µM (titrated, usually from 76.9 µM), for inactives: at the top dose activity change, negative = inhibition, usual class: inhibitors | hit rate 0.4% among 340,000 | AID 624288, 2012; active = falling curve of any shape with a large fitted effect; inconclusive = falling curve, mostly with a smaller effect; inactive = flat or rising curve; cell line not stated here;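 also: intracellular cAMP measured with PDE inhibitor Ro 20-1724 present during compound exposure; potency is read from the fitted curve at half-maximal effect; % is scaled to controls: 0 for no effect and ±100 for the full control effect; nearly all actives have a fitted effect of over 65% in size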
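Measurement of cellular cAMP by homogeneous time-resolved fluorescence following a 30 min compound exposure at 37C. The PDE inhibitor […] was present throughout; the assay buffer was DPBS with 0.05% BSA and 0.005% Tween 20.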
D2 potentiator – Beta-Arrestin HTS for Positive Allosteric Modulators of the Human D2 Dopamine Receptor: Potentiators. AID 624464, 2012. DiscoveRx D2 beta-arrestin cells, luminescence, 90 min; 100% = 57 uM dopamine signal. potentiation, % (test concentration not listed). D(2) dopamine receptor (Homo sapiens), P14416. hit rate 0.23% among 360,000; active = potentiation of 50% or more; inconclusive = 30% to 50%; inactive = 30% or less;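 also: compound concentration not given in the record; tested on top of an EC20 dose of dopamine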
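PathHunter beta-arrestin assay in DiscoveRx D2 cells. Compounds were added with an EC20 of dopamine (50 nM final) for 90 min at 37 deg C. Luminescence was read 1 h after detection reagent, with 57 uM dopamine as the EC100 control.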
Six1-Eya2 blk – qHTS Assay for Inhibitors of the Six1/Eya2 Interaction. hit rate 0.56% among 360,000. Homeobox protein SIX1 (Homo sapiens) + Protein phosphatase EYA2 (Homo sapiens), …. AlphaScreen GST-Six1/His-Eya2 binding, biochemical; hits give low values; control for the full effect not named in the record. AID 651725, 2012. activity change, % (test concentration not listed); in the data active = activity change below about -65%; inconclusive = about -30% to -65%; inactive = above about -30%; also: % is scaled to controls: 0 for no effect and ±100 for the full control effect; compound concentration not given in the record
Target sequence (O00167 whole entry, looked up): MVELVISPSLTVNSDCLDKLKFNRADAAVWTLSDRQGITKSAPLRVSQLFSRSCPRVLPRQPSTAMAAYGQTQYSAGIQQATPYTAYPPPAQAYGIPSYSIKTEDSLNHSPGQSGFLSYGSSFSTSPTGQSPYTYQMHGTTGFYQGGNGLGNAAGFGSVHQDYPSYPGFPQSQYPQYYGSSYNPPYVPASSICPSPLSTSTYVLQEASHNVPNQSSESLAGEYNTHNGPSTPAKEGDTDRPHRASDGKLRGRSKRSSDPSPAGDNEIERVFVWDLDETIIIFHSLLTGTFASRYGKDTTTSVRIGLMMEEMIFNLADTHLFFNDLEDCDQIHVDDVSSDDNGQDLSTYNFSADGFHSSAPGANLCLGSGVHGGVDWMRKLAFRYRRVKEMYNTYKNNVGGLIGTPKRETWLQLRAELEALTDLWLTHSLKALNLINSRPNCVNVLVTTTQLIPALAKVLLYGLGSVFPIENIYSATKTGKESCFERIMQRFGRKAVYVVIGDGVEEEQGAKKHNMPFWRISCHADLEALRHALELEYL
Target sequence (Q15475 whole entry, looked up): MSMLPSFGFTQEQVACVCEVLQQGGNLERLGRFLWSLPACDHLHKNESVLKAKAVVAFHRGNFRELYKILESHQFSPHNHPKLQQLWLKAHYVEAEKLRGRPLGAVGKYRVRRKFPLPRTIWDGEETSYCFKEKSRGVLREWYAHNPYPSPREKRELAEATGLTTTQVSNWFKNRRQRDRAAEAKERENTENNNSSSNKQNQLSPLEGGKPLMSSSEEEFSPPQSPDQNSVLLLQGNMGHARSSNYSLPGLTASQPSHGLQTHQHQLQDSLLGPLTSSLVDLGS
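Compounds are tested against tagged Six1 and Eya2 proteins bridged by glutathione donor and nickel acceptor beads; after a one-hour incubation at 37 °C without light, AlphaScreen emission is recorded.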
D2 ag – Beta-Arrestin HTS for Positive Allosteric Modulators of the Human D2 Dopamine Receptor: Agonists; D(2) dopamine receptor (Homo sapiens), P14416; DiscoveRx PathHunter D2 beta-arrestin, luminescence, 90 min; 100% = 57 uM dopamine signal; activation, % (test concentration not listed); hit rate 0.084% among 360,000; AID 624465, 2012; in the data active = activation above about 40%; inconclusive = about 15% to 40%; inactive = below about 15%; also: compound concentration not given in the record; the text of the record calls up to 30% inactive
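DiscoveRx PathHunter D2 beta-arrestin cells (2,100/well) attached overnight, then compound-stimulated 90 min at 37 C in HBSS/10 mM HEPES/0.1% Tween-20 buffer; beta-galactosidase complementation read by luminescence after 1 h at ambient temperature. Dopamine 57 uM final (EC100) as control.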
* marks the source's active call; other numbers are inactive results; ? = inconclusive; . = no result given; [ ] = dose if it differs, or a comment.

SMILES	CtBP-E1A blk	gsp ag	gsp antag	D2 potentiator	Six1-Eya2 blk	D2 ag
CC(=O)CCC(=O)CNC(=O)CC[C@H]1O[C@@H](n2ccc(=O)[nH]c2=O)[C@H](O)[C@@H]1O	-13	.	.	-6	11	-4.1
COc1ccccc1CCCNC(=O)C1CCC(=O)N(CCc2cccc(F)c2)C1 (stereo not drawn)	1	-34%[inhibitor]	-7%	-10	1	-5.2
Cc1cc2oc(=O)cc(CN3CCOCC3)c2c(C)c1Cl	12	21%	-12%	2	0	0.0
O=C(O)c1ccc(OS(=O)(=O)c2ccc(Cl)s2)c(Cl)c1	.	-42%[inhibitor]	-16%	7	-1	-3.4
COc1ccc(-c2csc3ncnc(N4CCN(S(=O)(=O)c5ccccc5C#N)CC4)c23)cc1	12	7%	-11%	-3	2	-3.1
CCC1CCCCN1C(=O)N[C@@H](Cc1ccccc1)C(=O)O (stereo partly drawn)	12	5%	-2%	0	4	3.2
O=C(Nc1ccccc1Cl)N1CCN(C/C=C/c2ccccc2)CC1	-11	-22%	-1%	-12	0	-1.0
Cn1c(=O)c2c(nc(CN3CCN(Cc4ccccc4)CC3)n2Cc2cccc(Cl)c2)n(C)c1=O	-13	4%	4%	-17	1	-6.1
CC1CN(C(=S)SCC(=O)c2ccccc2)CC(C)O1 (stereo not drawn)	-4	-17%	-7%	-6	8	-0.8
CSc1ccc(OC2(C)CCN(Cc3ccccc3)C2)cc1 (stereo not drawn)	-10	.	.	-22	-21	-7.7
COCCn1c(C)cc(C(=O)COC(=O)c2ccc(N3CCCC3=O)cc2)c1C	0	4%	-3%	-9	-1	-0.1
O=C(Nc1cccc(NC(=O)c2cccs2)c1)c1ccc2c(c1)OCO2	-11	11%[15.4 µM]	-5%	-27	-17	-2.5
S=c1[nH]nc(Cc2cccs2)n1-c1ccccc1	10	-40%[inhibitor]	-8%	-14	3	-2.7
Cn1c(CNC(=O)c2ccco2)nnc1SCC(=O)Nc1cccc(F)c1	6	1%[15.4 µM]	11%	-8	0	-1.4
CCOC(=O)c1c(C)n(C)c2ccc(OC)c(NC(=O)CN3CCN(C(=O)c4ccco4)CC3)c12	31	2%	-11%	-6	26	0.3
CN(CCc1ccccn1)C(=O)CCC1CCCN(C(=O)c2ccccn2)C1 (stereo not drawn)	10	15%	11%	3	2	0.6
O=C(COC(=O)/C=C/c1ccccc1)NNC(=O)c1ccc([N+](=O)[O-])cc1	-2	-13%	10%	-2	3	2.1
O=C(OCCCN=C1NS(=O)(=O)c2ccccc21)c1ccccc1	2	7%[15.4 µM]	5%	-14	0	-6.2
COc1ccc2c(OC)cc(=O)n(C)c2c1	3	1%	18%	-21	-13	-3.9
COc1ccc(-c2cc3cccc(OC)c3oc2=O)cc1	9	19%	-30%	-11	7	-2.9

Arranged by formula weight (rising): 12 of the compounds above.
SMILES	CtBP-E1A blk	gsp ag	gsp antag	D2 potentiator	Six1-Eya2 blk	D2 ag
COc1ccc2c(OC)cc(=O)n(C)c2c1	3	1%	18%	-21	-13	-3.9
S=c1[nH]nc(Cc2cccs2)n1-c1ccccc1	10	-40%[inhibitor]	-8%	-14	3	-2.7
COc1ccc(-c2cc3cccc(OC)c3oc2=O)cc1	9	19%	-30%	-11	7	-2.9
O=C(OCCCN=C1NS(=O)(=O)c2ccccc21)c1ccccc1	2	7%[15.4 µM]	5%	-14	0	-6.2
O=C(Nc1ccccc1Cl)N1CCN(C/C=C/c2ccccc2)CC1	-11	-22%	-1%	-12	0	-1.0
O=C(Nc1cccc(NC(=O)c2cccs2)c1)c1ccc2c(c1)OCO2	-11	11%[15.4 µM]	-5%	-27	-17	-2.5
O=C(COC(=O)/C=C/c1ccccc1)NNC(=O)c1ccc([N+](=O)[O-])cc1	-2	-13%	10%	-2	3	2.1
CN(CCc1ccccn1)C(=O)CCC1CCCN(C(=O)c2ccccn2)C1 (stereo not drawn)	10	15%	11%	3	2	0.6
Cn1c(CNC(=O)c2ccco2)nnc1SCC(=O)Nc1cccc(F)c1	6	1%[15.4 µM]	11%	-8	0	-1.4
COCCn1c(C)cc(C(=O)COC(=O)c2ccc(N3CCCC3=O)cc2)c1C	0	4%	-3%	-9	-1	-0.1
CCOC(=O)c1c(C)n(C)c2ccc(OC)c(NC(=O)CN3CCN(C(=O)c4ccco4)CC3)c12	31	2%	-11%	-6	26	0.3
Cn1c(=O)c2c(nc(CN3CCN(Cc4ccccc4)CC3)n2Cc2cccc(Cl)c2)n(C)c1=O	-13	4%	4%	-17	1	-6.1

Further results:
SMILES	CtBP-E1A blk	gsp ag	gsp antag	D2 potentiator	Six1-Eya2 blk	D2 ag
COCCNC(=O)C(c1ccncc1)N(Cc1ccccc1)C(=O)Cn1nnc2ccccc21 (stereo not drawn)	-3	16%	-6%	-2	10	-1.9
CCCn1c(=S)[nH]c2cc(C(=O)N3CCN(c4ccccc4)CC3)ccc2c1=O	5	-13%	.	-3	4	4.0
O=C(CSc1nc2ccccc2[nH]1)N/N=C/C=C\c1ccccc1[N+](=O)[O-]	-18	?	-1%	-4	-2	-2.0
COc1ccc(-c2nnn(Cc3ccccc3)n2)cc1OC	10	-20%	7%	1	8	-1.6
COC(=O)Cc1ccc(NC(=S)N2CCN(C)CC2)cc1	0	-12%[15.4 µM]	7%	-4	7	-7.4
COc1ccc(/C=C/C(=O)c2ccc3c4c(cccc24)CC3)cc1	11	-10%	0%	-5	-9	-3.1
Cc1ccc(S(=O)(=O)N2CCN(C(=O)CSc3nccn3C)CC2)cc1	4	-13%[15.4 µM]	14%	-4	-7	-2.4
O=C(Oc1ccc[nH]c1=O)C1CC1	0	?	.	-2	-2	-3.8
CCN(CC(=O)Nc1c(F)cccc1F)C(=O)c1cccc(S(=O)(=O)N2CCCc3ccccc32)c1	-22	0%	-10%	-2	-1	-1.0
CCOC(=O)c1cccc2c(=O)c(C(=O)c3ccc(Cl)cc3)c(C(=O)OC)[nH]c12	4	0%[15.4 µM]	21%	-12	3	-6.5
Cc1cc(C)cc(NC(=O)CN2CCc3ccccc3C2)c1	9	18%	9%	-20	10	-4.0
CSc1ccc(Cn2c(C)c(C(=O)NCc3ccc4c(c3)OCO4)sc2=O)cc1	-12	.	.	-4	-10	12
O=C(CS(=O)(=O)Cc1ccccc1)NCC1CCCO1 (stereo not drawn)	-12	-8%	2%	-3	-3	-2.2
COc1ccc(C2=NO[C@@H]3[C@@H]4C[C@@H]([C@H]5C(=O)N(c6ccc7c(c6)OCO7)C(=O)[C@@H]45)[C@H]23)cc1OC	2	-18%	4%	26	-9	4.7
CCCCOc1ccc(/C=C(\C(=O)O)c2ccc(S(=O)(=O)N3CCCC3)s2)cc1	5	-31%[inhibitor]	?	0	-3	-1.0
Cc1cccn2c(=S)[nH]nc12	3	15%	-25%	-11	0	7.2
CC(=O)c1cccc(NC(=O)CO/N=C2/CCCc3nonc32)c1	5	22%[15.4 µM]	-6%	-3	7	-1.8
O=C(COC(=O)Cc1ccc(S(=O)(=O)N2CCOCC2)s1)Nc1ccc(F)cc1F	-2	-19%	-8%	-6	-2	-0.2
COc1ccc(C(=O)N2CCOCC2)cc1Br	8	-7%	1%	4	0	-1.6
Cc1onc(-c2ccccc2Cl)c1C(=O)Nc1ccccc1N1CCOCC1	-10	6%	-9%	4	-3	-2.1
CCCCCC(=O)OCCc1c(C)nc2nc[nH]n2c1=O	.	-5%[15.4 µM]	-7%	-4	12	3.2
O=C(c1n[nH]c2ccccc12)N1CCCCC1	7	-22%[15.4 µM]	7%	-1	17	-4.6
CCc1nnc(NC(=O)CCn2cnc3ccccc3c2=O)s1	6	18%[15.4 µM]	3%	-6	8	-6.4
Cc1cc(C)n(-c2nc(-c3ccc(Cl)c(Cl)c3)cs2)n1	1	4%	11%	-7	7	-0.7
Cc1nc(C)c(C(=O)Nc2cccc(Cl)c2)o1	-1	-5%	2%	-15	3	-0.8
CN(C)S(=O)(=O)c1ccc(NC(=O)CCNC(=O)c2ccc([N+](=O)[O-])cc2)cc1	0	-11%	0%	15	-1	6.0
CC(=O)Nc1ccc(OC(=O)c2ccc(Br)c([N+](=O)[O-])c2)cc1	-14	-11%[15.4 µM]	-10%	-8	-14	-1.9
CN(c1ccc(C(=O)N2CCN(c3ccc(F)cc3)CC2)cc1)S(C)(=O)=O	5	?	7%	29	4	0.6
CCCc1nnc(SCC(=O)N2CCOCC2)n1CC1CCCO1 (stereo not drawn)	0	1%	9%	-15	0	-4.7
Cc1cc(C)nc(SCC(=O)NNS(=O)(=O)c2ccc(C#N)cc2)n1	9	5%	0%	-1	1	-0.2
O=C(Nc1cccc(NC(=O)c2cccs2)c1)c1ccc(F)cc1	-5	-7%	-18%	-5	-5	-1.8
COC(=O)[C@H](CC(C)C)NC(=O)N1CCCCC1C (stereo partly drawn)	-14	-23%	12%	-9	3	-3.3
Cc1ccc(C(CNS(=O)(=O)c2ccc(F)cc2C)N2CCN(C)CC2)cc1 (stereo not drawn)	-13	19%[15.4 µM]	-11%	-4	8	-6.5
COc1ccc(N=Cc2cccc(C)c2O)cc1Cl	8	-23%[15.4 µM]	9%	-8	-5	-0.6
CCN(CC)C(=O)C1=C(C)N(CCCN2CCCC2=O)C(=O)C(CC(=O)NC2CCCCC2)C1 (stereo not drawn)	0	28%	.	5	32	8.3
CCC1(C(=O)OC)NC(c2cccc(F)c2)C2C(=O)N(C)C(=O)C21 (stereo not drawn)	-2	6%	-3%	-4	10	-2.1
COc1cccc(NC(=S)NN2C(C)CCCC2C)c1 (stereo not drawn)	-3	0%[15.4 µM]	3%	5	4	-4.2
